Sfp PPTase inh – blocks B. subtilis Sfp PPTase activity; AID 1490; Potency, µM, without a hit: max response, negative = inhibition, usual class: inhibitors; hit rate 3.5% among 310,000; Biochemical Sfp PPTase activity, qHTS; active = well fitted inhibition curve with a large enough effect; inconclusive = small, poorly fitted or top-dose-only effect, or another doubt; inactive = no such curve, though single readings can be large or run the other way;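 also: the enzyme is Sfp with the accession as filed and its product quenches rhodamine fluorescence; potency is read from the fitted curve at half-maximal effect; 0% = enzyme reaction without inhibitor and -100% = no enzyme wells; top concentration of the series not given in the record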
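Reaction rates are the 30-min fluorescence difference (ex 525, em 598 nm) in wells containing 15 nM Sfp, 5 uM rhodamine-CoA and 12.5 uM BHQ-2-YbbR at pH 7.6 with 10 mM MgCl2.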
PINK1 modulator – PINK1 expression modulation; PINK1 immunofluorescence, high-content cytometry, 24 h; Potency, µM (titrated, usually from 76.6 µM), for the others: at the highest dose activation (PINK1 increase), usual class: activators; hit rate 0.2% among 410,000; active = well fitted activation curve with a large enough effect; inconclusive = small, poorly fitted or top-dose-only effect; inactive = flat fitted curve, though single readings scatter; cell line not stated here;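 also: potency is read from the fitted curve at half-maximal effect; % of control where 0% means no effect; nearly all actives have a fitted effect of over 65% in size; a mitochondrial uncoupler was the plate control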
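Compound titrations (5 concentrations, 24 h) on a stable cell line; DMSO and CCCP controls. Endpoint: fixed-cell PINK1 immunofluorescence with mitochondrial, cell and nuclear markers, scanned by microplate cytometer.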
TRPML1 ag – activates the human TRPML1 channel; TRPML1-expressing cells, Ca2+ dye fluorescence, FDSS; host cell line not named in the record; reference of the full effect not given here; activation, % (no concentration beside the values); hit rate 0.12% among 410,000; AID 624414; in the data active = activation above about 50%; inconclusive = about 30% to 50%; inactive = below about 30%; also: 0% is about no effect; the text of the record puts the active cut at 80%
Target sequence (Q9GZU1 whole entry, looked up): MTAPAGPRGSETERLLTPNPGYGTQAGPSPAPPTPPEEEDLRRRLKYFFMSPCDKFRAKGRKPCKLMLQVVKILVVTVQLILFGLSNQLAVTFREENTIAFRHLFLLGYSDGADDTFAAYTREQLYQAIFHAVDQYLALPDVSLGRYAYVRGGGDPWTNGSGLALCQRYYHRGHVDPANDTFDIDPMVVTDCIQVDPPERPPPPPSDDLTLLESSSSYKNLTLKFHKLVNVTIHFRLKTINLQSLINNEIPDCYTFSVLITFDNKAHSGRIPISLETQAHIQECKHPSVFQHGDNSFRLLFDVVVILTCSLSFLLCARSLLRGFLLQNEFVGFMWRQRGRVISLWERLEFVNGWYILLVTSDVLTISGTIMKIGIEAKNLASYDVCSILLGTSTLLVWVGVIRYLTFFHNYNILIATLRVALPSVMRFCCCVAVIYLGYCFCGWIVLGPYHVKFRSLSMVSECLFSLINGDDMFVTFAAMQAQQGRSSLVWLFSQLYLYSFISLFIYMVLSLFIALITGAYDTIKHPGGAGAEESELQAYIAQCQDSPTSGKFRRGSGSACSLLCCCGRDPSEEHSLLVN
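Kinetic FDSS Ca2+ read in Tet-induced TRPML1-DL cells (ABD Ca8 dye plus quencher, 45-90 min RT loading): baseline, then compound, then 110 s agonist window; EC80 agonist 54-4 at 4uM final added afterwards for a 110 s antagonist window.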
ClpP mod – qHTS Assay for Activators of ClpP | purified B. subtilis ClpP, FRET peptide cleavage, 20 min | hit rate 1.9% among 340,000 | Potency, µM (top dose mostly 57.5 µM), inactives show top-dose activity change, negative = active | ATP-dependent Clp protease proteolytic subunit (Bacillus subtilis (strain 168)), P80244; active = well fitted falling curve with a large enough effect; inconclusive = small, poorly fitted or top-dose-only effect; inactive = no such curve, though single readings can be large or run the other way; also: potency is read from the fitted curve at half-maximal effect; the source files actives as falling curves though it sought activators and does not explain the sign; nearly all actives have a fitted effect of over 65% in size; many hits overshoot -100%
Target sequence (P80244 whole entry, looked up): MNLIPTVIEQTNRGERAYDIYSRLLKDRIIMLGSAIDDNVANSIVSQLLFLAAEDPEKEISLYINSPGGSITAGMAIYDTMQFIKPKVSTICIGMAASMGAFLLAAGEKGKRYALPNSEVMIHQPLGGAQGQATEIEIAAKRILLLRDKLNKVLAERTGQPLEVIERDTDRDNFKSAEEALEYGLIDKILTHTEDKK
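Buffer: 100 mM Tris/HCl pH8, 100 mM KCl, 0.05% low protease BSA, 2.5% glycerol, 0.01% Tween-20. ClpP 10 microg/mL final; 20 min RT; delta FRET normalized to ADEP and DMSO controls.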
Menin MLL FP FL – menin-MLL binding inhibition, fluorescein peptide; 290,000 tested, under 10 active; Fluorescence polarization, fluorescein-MLL peptide displacement from menin; FP activity change, % at 61.4 µM; AID 1766; inconclusive = falling polarisation curve, or a change in total fluorescence; inactive = total fluorescence flat and polarisation flat or rising; no compound was filed as active; the % refers to the polarisation; negative = inhibition;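 also: % of control where 0% means no effect; inhibitors lower the polarisation; unlabelled MLL peptide was the positive control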
TRPML1 inh – inhibitors of human TRPML1 channel. Q9GZU1. TRPML1-inducible cells, Ca2+ dye fluorescence, FDSS; hits give low values; inhibition of EC80 agonist-evoked calcium signal. activity change, negative = inhibition, % (concentration not given with the values). hit rate 0.02% among 390,000; in the data active means activity change below about -50%; inconclusive means about -30% to -50%; inactive means above about -30%;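 also: stimulus is agonist 54-4 at its EC80 concentration; % is scaled to controls: 0 for no effect and ±100 for the full control effect; compound concentration not given in the record; the text of the record puts the active cut at -80%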
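Calcium fluorescence in TRPML1-DL cells induced overnight with Tet: a 110 s read after compound pin addition, then a 110 s antagonist read after challenge with 54-4 at 4 uM final (EC80).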
TRPV1 PAM – potentiators of human vanilloid receptor 1 (TRPV1). Q8NER1. TRPV1-expressing cells, Fluo-8 calcium influx, capsaicin EC20 potentiation; host cell line not named in the record; control for the full effect not named in the record. potentiation, % at 8.33 µM. hit rate 0.02% among 320,000; active means potentiation above 80%; inconclusive means 30% to 80%; inactive means below 30%; also: 0% is about no effect
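TRPV1-expressing cells were cultured overnight at 35.5C and loaded with Fluo-8 calcium dye for 40 to 90 min at room temperature. After a 10 s baseline, compound was added and calcium influx was read kinetically for 3 min (ex 480/em 520 nm).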
* marks the source's active call; other numbers are inactive results; ? = inconclusive; / = not tested or not shown; & = joins results of further samples; [ ] = another dose, or the depositor's remark.

SMILES	Sfp PPTase inh	PINK1 modulator	TRPML1 ag	ClpP mod	Menin MLL FP FL	TRPML1 inh	TRPV1 PAM
Cc1cccc(CNc2cc(-c3ccccc3C)ncn2)c1	-25%	0.5%	/	/	0.2	/	/
COc1cc2c(cc1OC)n(CC(=O)c1cc(C)ccc1C)c(=O)n1nc(CCn3nc(C)cc3C)nc21	/	-0.4%	1.3	0.1%	/	0	/
Cc1cc(C)cc(N(CC(=O)NC2CCCCC2)C(=O)c2ccc(C)s2)c1	8%	/	0.9	-1.1%	2.7	-7	-19
CCCc1c(C)c2ccc(OCC(C)=O)cc2oc1=O	-12%	-2.0%	-0.1	3.2µM*	-1.4	11	-7
Cc1[nH]n(-c2ccccc2)c(=O)c1N=Nc1cccc(Cl)c1	17%	3.8%	/	2.7%	6.1	/	-12
Cc1cc(NC(=O)C(C)SCC(=O)Nc2ccccc2N2CCCC2)no1 (stereo not drawn)	/	-2.8%	2.5	-3.0%	/	-5	-10
O=C(NCCCN1CCOCC1)c1ccc(-c2ccc(Cl)cc2)o1	-8%	0.7%	1.5	4.2%	8.0	-1	-8
O=C(NCc1ccco1)C(Cc1ccccc1)N1C(=O)c2ccccc2C1=O (stereo not drawn)	10%	6.9%	0.0	0.5%	-1.7	0	-7
CCCCCc1nnc(NC(=O)CS(=O)(=O)Cc2ccccc2)s1	26%	-0.9%[38.3 µM]	-0.7	1.8%	1.4	0	-5
c1ccc(-c2nnc3sc(CN4CCC5(CC4)OCCO5)cn23)cc1	27%	14%[38.3 µM]	-0.6	0.7%	5.2	5	-9
Cc1ccc(Cn2nc(-c3ccccc3)nc2-c2ccccc2)cc1	-1%	13%	3.0	-1.3%	-1.1	26	/
COc1ccc(-c2cc(OC(=O)c3ccc(Cl)cc3)c3c(C)oc(C)c3c(=O)c2)cc1	/	2.1%	-0.3	-2.4%	/	-14	/
CCn1c(OC)nc2c1c(=O)n(C)c(=O)n2C	-14%	1.6%	-0.4	16%	-3.3	8	11
Nc1nonc1NN=C1CCCCC1	79µM*	0.2%	2.1	-1.2%	-2.2	16	-2
COc1ccc(C(=O)C2CCCN(C(=O)c3noc4c3CCCC4)C2)cc1F (stereo not drawn)	-4%	-1.0%	-0.2	/	5.0	-10	-12
O=C(NC(=S)N1CCCC1)c1ccccc1	-3%	0.5%	-0.1	0.0%	/	-17	?
Clc1ccccc1-c1nnc(-c2ccccc2Cl)o1	1%	/	-0.1	-4.2%	-1.5	15	-15
CCN(CC)C(=O)c1ccc(COc2ccccc2Cl)cc1	-8%	0.5%	2.1	-1.5%	3.5	53	4
CCOC(=O)C1=CN(Cc2cccc(F)c2)S(=O)(=O)N(CC)C1c1ccc(Br)cc1F (stereo not drawn)	/	1.1%	0.5	-2.5%	/	14	/
O=C(NS(=O)(=O)c1ccccc1)c1cccc(Br)c1	19%	1.0%	-0.6	-0.8%	/	-3	0
CCOc1ccc(NC(=O)N2CCC(N3CCCCC3)CC2)cc1	/	1.0%	1.0	1.6%	/	-6	/
CN(C)S(=O)(=O)c1ccc(Cl)c(C(=O)NC2=NCCS2)c1	15%	0.5%	0.7	-0.4%	-6.1	17	11
CCOC(=O)c1c(NC(=O)CCN2CCOCC2)sc(C)c1-c1ccccc1	-12%	3.2%	0.5	/	-8.3	26	-9
CCC(C)NC(=O)C1CCN(S(=O)(=O)c2ccc3c(c2)CC(C)N3C(C)=O)CC1 (stereo not drawn)	15%	0.6%	-0.1	-2.0%	0.1	17	16
C/C(=N\Nc1ccccc1)c1cccs1	/	-0.9%	0.0	/	/	-19	/
Nc1ccc(CNC(=O)OCC2c3ccccc3-c3ccccc32)cc1	/	1.7%	-0.5	-3.1%	/	13	/
O=C(C=C1CCN(c2ncc(C(F)(F)F)cc2Cl)CC1)NNC(=O)Nc1ccc(Cl)cc1	6%	0.4%	-1.0	0.1%	4.6	13	2
COCCn1c(=O)[nH]c2cc(C(=O)NCCc3ccc(S(N)(=O)=O)cc3)ccc2c1=O	26%	-1.5%	-0.6	/	-0.2	6	3
CSc1nc(=S)c2[nH]c(=S)[nH]c2[nH]1	2.5µM*	3.0%	-0.4	0.8%	-8.5	27	-12
Cc1cnc(NC(=O)c2ccc3c(c2)C(=O)N(Cc2cccnc2)C3=O)s1	16%	5.4%	-0.5	-1.6%	1.4	-6	-14
COc1ccc2oc(C(=O)OCC(=O)Nc3ccc(OC)c(S(N)(=O)=O)c3)c(C)c2c1	/	2.6%	0.7	28µM*	/	4	6
O=C(CN1CCN(CC(=O)Nc2cccc(F)c2)CC1)Nc1ccc(-c2ccccc2)cc1	8%	-2.5%	0.0	/	-3.3	8	13
CC(Sc1nc2ccccc2s1)C(=O)Nc1ccc2c(c1)OCO2 (stereo not drawn)	-4%	1.2%	0.0	-2.6%	17	3	1
COc1ccc(S(=O)(=O)N2CCCCC2)cc1Br	10%	1.4%	-0.5	-0.1%	1.8	-3	-9
CCCNC(=O)c1nc(C)n(-c2ccc([N+](=O)[O-])cc2)n1	13%	-0.8%	-1.1	/	0.6	-7	7
CCOc1ccccc1NC(=O)Nc1ccccn1	6%	1.3%	-0.6	/	-0.1	-21	9
CCN1CCN(C(=O)c2c(C)nn(-c3ccc(F)cc3)c2-n2cccc2)CC1	/	2.2%	1.9	-1.8%	/	4	/
Cc1ccc(OCc2cc(C(=O)N(C)CCc3ccccn3)no2)cn1	6%	0.0%	-1.1	-0.4%	/	-4	0
O=C(CN(Cc1ccccc1F)S(=O)(=O)c1ccc(Cl)cc1)NCCC1=CCCCC1	7%	4.1%[38.3 µM]	0.0	0.1%	0.0	0	-4
CCCS(=O)(=O)N1CCCC(C(=O)NCC(OC)OC)C1 (stereo not drawn)	23%	0.6%	0.6	0.3%	-0.4	-17	-15
CN(C)/C=C(\C#N)C(=O)N/N=C/c1ccc(Cl)cc1	14%	0.9%	1.0	-2.3%	-5.0	4	0
Cc1nnc(SCC(=O)N2CCN(S(=O)(=O)c3ccccc3)CC2)[nH]c1=O	-21%	-1.2%	-0.3	0.9%	4.5	-8	11
Cc1cc(Oc2c(C(F)(F)F)oc3c(CN4CCC(C)CC4)c(O)ccc3c2=O)cc(C)c1Cl	/	1.1%	-0.9	-2.3%	/	-9	/
Cc1ccc(-c2nc(CSCC(=O)NCCCN3CCOCC3)c(C)o2)cc1	19%	/	0.3	-3.6%	6.2	-2	4
O=C(COC(=O)/C=C/c1cc(Br)ccc1F)NC1CC1	/	-2.5%	1.3	/	/	-12	/
CCOC(=O)c1sc2ccccc2c1S(=O)(=O)Nc1cc(OC)ccc1OC	/	0.3%	2.0	2.0%	/	56	/
CC(=O)Oc1c(C(=O)c2nnc(C)o2)c(=O)n(Cc2ccccc2)c2ccccc12	8%	5.8%	0.0	-19%	-0.4	-3	13
CCOc1cc(CN2CCSCC2)ccc1O	-11%	-7.3%[38.3 µM]	-0.3	0.4%	3.3	-6	12
COc1cccc(CSc2nc(N)cc(N)n2)c1	17%	3.0%	-0.3	/	2.4	-1	20
COc1ccc(Nc2c(CC(C)C)nc3nc(C)cc(C)n23)cc1	/	-0.7%	-0.8	0.8%	/	/	/

Record cards, from the list above. Values in the order: Sfp PPTase inh | PINK1 modulator | TRPML1 ag | ClpP mod | Menin MLL FP FL | TRPML1 inh | TRPV1 PAM
Results for CC(=O)Oc1c(C(=O)c2nnc(C)o2)c(=O)n(Cc2ccccc2)c2ccccc12 = 8% | 5.8% | 0.0 | -19% | -0.4 | -3 | 13
Results for CCOc1cc(CN2CCSCC2)ccc1O = -11% | -7.3%[38.3 µM] | -0.3 | 0.4% | 3.3 | -6 | 12

Remaining list, next part
SMILES	Sfp PPTase inh	PINK1 modulator	TRPML1 ag	ClpP mod	Menin MLL FP FL	TRPML1 inh	TRPV1 PAM
O=C1CC(C(=O)N2CCOCC2)C2(CCCCC2)O1 (stereo not drawn)	8%	-4.8%[38.3 µM]	0.7	-1.3%	0.0	6	5
COc1ccc(Cn2c(=O)c3[nH]cnc3n(-c3ccc(C)cc3)c2=O)cc1	2%	-1.3%	0.8	3.2%	0.8	2	6
O=C(Nc1ccc(F)cc1)c1ccc(COc2ccccc2)cc1	29%	-1.0%	1.9	-5.9%	/	0	5
CCn1c(CSc2nc3ccccc3[nH]2)n[nH]c1=S	-3%	1.5%[38.3 µM]	0.7	-2.8%	-1.7	12	-40
COC(=O)c1c(=O)n(O)c2ccc(OC)cc2[n+]1[O-]	?	-1.5%	1.1	0.3%	?	1	-1
C[C@H](CO)N1C[C@H](C)[C@@H](CN(C)Cc2ccncc2)Oc2ncc(Br)cc2C1=O	/	-1.2%	0.4	-1.2%	/	-19	/
COC(=O)C1=C(C)NC2=C(C(=O)CCC2)C1c1cn(Cc2ccc(Cl)cc2Cl)nc1-c1ccccc1 (stereo not drawn)	6%	-1.4%	-0.5	18µM*	2.3	44	-20
Cn1c(CSCc2ccc(Cl)c(Cl)c2)nnc1SCC(=O)Nc1nccs1	2%	1.1%	0.7	-1.7%	0.9	14	5
C[C@H](CO)N1C[C@H](C)[C@@H](CN(C)S(C)(=O)=O)Oc2ccc(NC(=O)CCC(F)(F)F)cc2C1=O	/	-0.5%	0.2	-4.5%	/	23	/
Cc1nc2ccccc2c2oc(C(=O)NCC3COc4ccccc4O3)cc12 (stereo not drawn)	-13%	3.8%	2.1	-2.1%	4.4	-4	1
COC(=O)C1CCN(C(=O)Cc2ccc(OC)c(OC)c2)CC1	4%	-0.3%	0.7	-1.6%	-1.5	-15	-5
C=CCOc1ccccc1/C=c1\sc2nc(=O)c(C)nn2c1=O	?	?	-0.2	1.9%	3.9	-12	-3
O=C(CCN1CCN2CCCC2C1)N1c2ccccc2Sc2ccc(Cl)cc21 (stereo not drawn)	-4%&-2%	-2.1%	1.6	-0.1%	-2.6&-2.2	8	-17
Cc1ccc(C)c(C(=O)COC(=O)CN2C(=O)C3C4CCC(C4)C3C2=O)c1 (stereo not drawn)	14%	2.1%	0.7	/	-1.7	-7	-18

In another format: results already given
| SMILES | Sfp PPTase inh | PINK1 modulator | TRPML1 ag | ClpP mod | Menin MLL FP FL | TRPML1 inh | TRPV1 PAM |
| --- | --- | --- | --- | --- | --- | --- | --- |
| CCN(CC)C(=O)c1ccc(COc2ccccc2Cl)cc1 | -8% | 0.5% | 2.1 | -1.5% | 3.5 | 53 | 4 |
| COCCn1c(=O)[nH]c2cc(C(=O)NCCc3ccc(S(N)(=O)=O)cc3)ccc2c1=O | 26% | -1.5% | -0.6 | / | -0.2 | 6 | 3 |

Bioassay records as filed in PubChem BioAssay.

Rows are unselected; 4.4% or so of the library scored in one or more.
